From PubChem BioAssay
miR-21 FLuc – miR-21 reporter, rising signal; Potency, µM (series often up to 38.3 µM), inactives show at the highest dose reporter change, positive = more light; HeLa miR-21 FLuc reporter, luciferase, 48 h; 340,000 tested, under 10 active; AID 2288; active = well fitted rising curve with a large enough effect; inconclusive = small, poorly fitted or top-dose-only effect; inactive = no such curve, though single readings can be large or run the other way;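 also: % of control where 0% means no effect; miR-21 action dims this reporter so a rising signal means less miR-21 action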
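Luminescence from a firefly luciferase reporter carrying a miR-21 binding site downstream, stably expressed under a CMV promoter in HeLa cells that make miR-21 endogenously, reports miRNA modulation after 48 h compound exposure up to approximately 40uM final.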
* marks the source's active call; other numbers are inactive results; ? = inconclusive. Not all compounds are listed; rates above refer to the full screens.

Start of the listing, in advance, 5 compounds:
SMILES | miR-21 FLuc
Cc1ccc(C)c(S(=O)(=O)c2cn(Cc3ccccc3)c3cc(F)c(F)cc3c2=O)c1 | 11%
O=C(CN1C(=O)C2CCCCN2c2ccc(C(=O)N3CCCC3)cc21)NCc1ccccc1F (stereo not drawn) | 4%
Cc1ccc(-c2nc3ccc(Cl)cn3c2Nc2ccc3c(c2)OCCO3)o1 | -52%
CCc1ccccc1NC(=O)CCn1nc(C)c2c(C)n(-c3ccccc3)nc2c1=O | -1%
CCC(=O)N1CCc2cc(S(=O)(=O)NCCC(=O)Nc3cccc(C)c3C)ccc21 | 1%

All compounds of this part (from the top)
SMILES | miR-21 FLuc
Cc1ccc(C)c(S(=O)(=O)c2cn(Cc3ccccc3)c3cc(F)c(F)cc3c2=O)c1 | 11%
O=C(CN1C(=O)C2CCCCN2c2ccc(C(=O)N3CCCC3)cc21)NCc1ccccc1F (stereo not drawn) | 4%
Cc1ccc(-c2nc3ccc(Cl)cn3c2Nc2ccc3c(c2)OCCO3)o1 | -52%
CCc1ccccc1NC(=O)CCn1nc(C)c2c(C)n(-c3ccccc3)nc2c1=O | -1%
CCC(=O)N1CCc2cc(S(=O)(=O)NCCC(=O)Nc3cccc(C)c3C)ccc21 | 1%
O=C(Cn1cc(S(=O)(=O)c2ccc(Cl)cc2)c(=O)c2ccccc21)Nc1ccc2c(c1)OCO2 | -1%
COc1ccccc1C(=O)Nc1c(C(=O)N(C)Cc2ccccc2)sc2nc(C)c(Cl)c(C)c12 | 24%
CCN1c2ccccc2-c2nc(SCC(=O)Nc3cc(C)c(Cl)cc3OC)ncc2S1(=O)=O | -4%
CCn1c(C(=O)N2CCCC(C(=O)NCCCOC)C2)cc2sccc21 (stereo not drawn) | -1%
COc1cc(C2CC(=O)Nc3c2c(=O)n(C)c(=O)n3C)cc(OC)c1OC (stereo not drawn) | 3%
COc1ccc2oc(=O)cc(CN3CCN(Cc4ccccc4)CC3)c2c1 | 27%
Cc1ccc(-n2nc(C(=O)Nc3ccc(C)c(F)c3)c3c4ccccc4n(C)c3c2=O)cc1 | 1%
O=C(Nc1ccccc1C(F)(F)F)N1CCC(CN2CCc3ccccc3C2)CC1 | 1%
O=C(NCC(c1ccc2c(c1)OCO2)N1CCOCC1)C(=O)Nc1cccc(Cl)c1 (stereo not drawn) | 1%
CCOc1ccc(C(=O)N2CCC(c3nc4ccccc4o3)CC2)cc1 | 0%
Cn1c(=O)c2c(nc(Oc3ccccc3)n2Cc2c(Cl)cccc2Cl)n(C)c1=O | -1%
COc1ccc(S(=O)(=O)n2nc(-c3ccco3)nc2NCc2ccc(N(C)C)cc2)cc1 | -45%
CC1=Nc2cc(C(=O)NC3CCCC3)ccc2Sc2ccc(C)cc21 | 29%
COc1ccccc1C(=O)NC(=O)Nc1ccc(-c2cc(C(F)(F)F)nn2-c2ccccc2)cc1 | 2%
Cc1ccccc1Nc1c(-c2ccccc2)nc2cccc(C)n12 | 4%
Cc1ccc(-c2nc3ccccc3[nH]2)cc1NC(=O)COc1cccc(C)c1C | 2%
COc1ccc(-c2cn(-c3ccc(C)cc3)c(S(=O)(=O)CC(=O)Nc3ccccc3)n2)cc1 | 1%
Clc1cccc(-n2ncc3c(NC4CCCCC4)ncnc32)c1 | -13%
CC(=O)c1ccc(N2CCN(C(=O)C3CCN(S(=O)(=O)c4cn(C)cn4)CC3)CC2)cc1 | -8%
COc1cccc2cc(-c3nnc(Nc4ccccc4C)s3)c(=O)oc12 | -70%
CCOc1ccc(NC(=O)Cn2cc(C(=O)c3ccc(OCC)cc3)c(=O)c3cc4c(cc32)OCCO4)cc1 | 5%
Cc1ccc(Cn2c(CNC(=O)Cc3cccc([N+](=O)[O-])c3)nc3cccnc32)cc1 | -2%
O=c1c2oc3ccccc3c2n(Cc2cccc(Cl)c2)c(=O)n1Cc1ccco1 | -4%
CCOc1ccc(-c2nn(CC(=O)NC3CCCC3)c3c2cnc2ccc(C)cc23)cc1 | 0%
O=c1cc(COc2ccccc2Cl)nc2scc(-c3ccccc3)n12 | -17%

Another view of 2 compounds above:
Cc1ccc(-c2nc3ccccc3[nH]2)cc1NC(=O)COc1cccc(C)c1C
  miR-21 FLuc: 2%
COc1ccc(-c2cn(-c3ccc(C)cc3)c(S(=O)(=O)CC(=O)Nc3ccccc3)n2)cc1
  miR-21 FLuc: 1%

(list continues)
SMILES | miR-21 FLuc
O=C(Cn1c(=O)n(-c2ccccc2)c(=O)c2c3c(sc21)CCC3)c1ccc(F)cc1 | 3%
COc1ccccc1OC(C)C(=O)Nc1ccc(-c2nc3ccccc3s2)cc1 (stereo not drawn) | -53%
Cc1ccc(NC(=O)CN2C(=O)c3ccccc3Sc3ccc(C(=O)N4CCOCC4)cc32)cc1C | -4%
CCCCSc1nnc2c(n1)OC(C)N(C(C)=O)c1ccccc1-2 (stereo not drawn) | -12%
CCCCCn1c(=N)c(S(=O)(=O)c2ccccc2)cc2c(=O)n3cccc(C)c3nc21 | -2%
Cc1c(Cl)cccc1NC(=O)CSc1nc(=O)n(Cc2cccnc2)c2c1CCC2 | 5%
CC(=O)c1cccc(NC(=O)Cc2ccc(NC(=O)N3CCCCc4ccccc43)cc2)c1 | -9%
Cc1ccc(NC(=O)c2sc(-n3nc(C)c(Cc4ccc(Cl)cc4)c3C)nc2C)cc1 | 0%
Cc1nc(N2CCOCC2)c2c(C(=O)N3CCN(c4cc(Cl)ccc4C)CC3)c(C)oc2n1 | -5%
CC(=O)N1CCc2cc(S(=O)(=O)NC(CC(C)C)C(=O)NCc3ccccc3Cl)ccc21 (stereo not drawn) | -1%
COc1cccc(NC(=O)Cn2c(=O)n(CC(=O)NCc3ccc(C)cc3)c(=O)c3sccc32)c1 | -2%
COc1ccc(-c2cnc(NCc3ccc(C)cc3)n2C)cc1 | 0%
CSc1cccc(-c2nnc(NC(=O)c3ccc4c(c3)OCCO4)o2)c1 | 3%
Cc1ccc(NC(=O)C(=O)NCC(c2ccc3c(c2)OCO3)N2CCOCC2)cc1C (stereo not drawn) | -1%
CCCCNC(=O)c1nn(-c2ccc(CC)cc2)nc1CO | 4%

Random excerpt: 2 compounds from above.
SMILES | miR-21 FLuc
Cc1ccc(NC(=O)C(=O)NCC(c2ccc3c(c2)OCO3)N2CCOCC2)cc1C (stereo not drawn) | -1%
CC(=O)N1CCc2cc(S(=O)(=O)NC(CC(C)C)C(=O)NCc3ccccc3Cl)ccc21 (stereo not drawn) | -1%

(continued)
SMILES | miR-21 FLuc
Cc1c(NC(=O)Nc2cccc(C(F)(F)F)c2)sc2nc3n(c(=O)c12)CCC(C)CC3 (stereo not drawn) | 2%
CCOC(=O)c1c(C)oc2nc(C)nc(NCc3ccc(C)cc3)c12 | -3%
CCc1ccccc1NC(=O)Cn1c(=O)oc2ccccc21 | 7%
Cc1oc(-c2ccc(C(=O)NCCCOC(C)C)cc2)nc1CS(=O)(=O)c1ccccc1 | 9%
CCC(C(=O)Nc1ccc(C(C)C)cc1)n1nc(C)n2c(cc3cc(C)ccc32)c1=O (stereo not drawn) | -8%
Cc1ccc(C)c(NC(=O)Nc2cccc(-c3cn4cccnc4n3)c2)c1 | -7%
COc1cc(OC)c(OC)cc1CNCCCSc1nnnn1C | -1%
O=C(c1nc(-c2ccc(Cl)cc2)n2c1CCCCC2)N1CCN(c2ccccc2)CC1 | 0%
CCCOc1ccc(OC(=O)c2sc3ncn(Cc4cccc(F)c4)c(=O)c3c2C)cc1 | -1%
O=C(NCc1c(-n2cccc2)sc2c1CCCC2)Nc1cccc(C(F)(F)F)c1 | -20%
FC(F)(F)c1cc(-c2ccccc2)nc2cc(-c3ccccc3)nn12 | -13%
CC(=O)c1ccc(NC(=O)CCc2c(C)nn(-c3ccc(N4CCCCC4)nn3)c2C)cc1 | -17%
COc1cc(OC)c(NC(=O)c2c(N3CCCC3=O)c3cc(C)ccc3n2C)cc1Cl | 2%
Cc1cccc(C)c1NC(=O)CCS(=O)(=O)c1ccc2c(c1)CC(C)N2C(=O)C1CC1 (stereo not drawn) | -1%
Cc1ccc(NC(=O)c2sc(-n3nc(C)c(CCC(C)C)c3C)nc2C)cc1C | -2%
CSc1ncc(Cl)c(C(=O)Nc2nc3ccc(F)cc3s2)n1 | -2%
CC(C)OCCCn1c(=O)c2ccccc2n2c(-c3ccc(F)cc3)nnc12 | 0%
Cn1ccc2c(OCC(=O)NCc3ccc(F)cc3)cccc2c1=O | 1%
CCN(C(=O)Cn1cnc2onc(-c3ccc(F)cc3)c2c1=O)c1cc(C)ccc1C | -6%
Cc1cccc(C(=O)Nc2ccc(-c3nc4ncccc4o3)cc2C)c1 | 11%
COc1cccc(CNC(=O)c2ccc(-c3nc(CS(=O)(=O)c4ccccc4)c(C)o3)cc2)c1 | 7%
COc1ccc(-c2nnc(SCC(=O)Oc3cccc(C)c3C)o2)cc1 | 5%
CCc1cccc(NC(=O)Cn2nc(-c3ccc(OC)cc3)ccc2=O)c1 | -12%
CCc1ccccc1NC(=O)c1cnc2sc(N3CCOCC3)nn2c1=O | -1%
O=C(CSc1nc2c(c(=O)[nH]1)CN(Cc1ccc3c(c1)OCO3)CC2)Nc1ccccc1Cl | -5%
O=C(Nc1nc2ccc(Cl)cc2s1)c1ccc(S(=O)(=O)N2CCCC2)cc1 | 1%
CC(C)c1nn2c(=O)cc(COC(=O)c3cccc(NC(=O)CCc4ccccc4)c3)nc2s1 | 4%
Cc1ccc(NC(=O)CN2CCN(C3CCCCC3)C(=O)C2=O)cc1C | -1%
O=C(CSc1nc(=O)n(Cc2ccccn2)c2c1CCC2)Nc1cccc(Cl)c1 | 8%
Cc1cccc(NC(=O)C(=O)c2cc(C)n(-c3ccccc3)c2C)c1C | -5%

The last four records of the section before open the next one:
SMILES | miR-21 FLuc
CC(C)c1nn2c(=O)cc(COC(=O)c3cccc(NC(=O)CCc4ccccc4)c3)nc2s1 | 4%
Cc1ccc(NC(=O)CN2CCN(C3CCCCC3)C(=O)C2=O)cc1C | -1%
O=C(CSc1nc(=O)n(Cc2ccccn2)c2c1CCC2)Nc1cccc(Cl)c1 | 8%
Cc1cccc(NC(=O)C(=O)c2cc(C)n(-c3ccccc3)c2C)c1C | -5%
NC(=O)C1CCN(S(=O)(=O)c2cc3c(cc2Cl)NC(=O)CO3)CC1 | -4%
CCOc1ccc(NC(=O)NCc2ccc3c(c2)CCN3C(C)=O)cc1 | -7%
Cc1ccc2ccc3cc(C(=O)Nc4ccc(C)c(F)c4)nc3c2[nH]1 | -4%
COCCn1c(CNC(=O)c2cccc(N(C)C)c2)nc2cccnc21 | -12%
CC(C)CCOc1ccc(C(=O)Nc2sc3c(c2C#N)CCCCC3)cc1 | -1%
CCOC(=O)c1c(S(=O)(=O)N2CCCC(C(=O)Nc3cccc(Cl)c3)C2)c(C)n(C)c1C (stereo not drawn) | 23%
COc1cc2nc(NC(=O)c3ccc(S(=O)(=O)N4CCCC4)cc3)sc2cc1OC | 0%
Cc1ccc(CNC(=O)c2ccc3c(O)c(S(=O)(=O)c4ccc(Cl)cc4)c(=O)[nH]c3c2)cc1 | 1%
S=C(NCCc1cccc(Cl)c1)NCc1ccccc1 | -27%
COc1ccc(C)cc1NC(=O)CN1C(=O)COc2ccc(S(=O)(=O)NC3CCCC3)cc21 | -2%
CC1CCN(S(=O)(=O)c2ccc3nc(NCc4ccc(F)cc4)ccc3c2)CC1 | 23%
Cc1cccc(OCC(=O)Nc2c(C(=O)N3CCN(c4ccccc4F)CC3)oc3ccccc23)c1 | 30%
CCOc1ccc(CNC(=O)c2cnc(SC)nc2CC)cc1 | -3%
COc1ccc(OC)c(NC(=O)c2cnc(N3CCCC3)nc2C)c1 | -15%
CCOC(=O)c1c(C)[nH]c(CCC(=O)Nc2cc(C)ccc2OC)c1C | 1%
CCCC(=O)Nc1ccccc1OCc1cc(=O)n2cc(C)ccc2n1 | 2%
CCN(C(=O)Cn1nc(Cc2ccncc2)c2ccccc2c1=O)c1ccc(OC)cc1 | -6%
CCOC(=O)c1ccccc1NC(=O)N1CCC(CN2CCCCC2)CC1 | -1%
Cc1cccc(NC(=O)c2sc3nc(-c4cc5ccc(O)cc5oc4=O)[nH]c(=O)c3c2C)c1 | -15%
COc1ccc(CCC(=O)NC2CC(=O)N(c3ccc(C)cc3)C2)cc1 (stereo not drawn) | 0%
COc1ccc(NS(=O)(=O)c2ccc3[nH]c(=O)ccc3c2)cc1OC | ?
COc1cc(NS(=O)(=O)c2ccc3oc(=O)c4ncn(C)c4c3c2)cc(OC)c1 | 0%
CCc1nn2c(=O)cc(COC(=O)c3ccc4c(c3)OCO4)nc2s1 | -24%
CCC(=O)Nc1ccccc1-c1nc2ccccc2n(CC(=O)c2ccc(Br)cc2)c1=O | 4%
Cc1ccc(S(=O)(=O)c2nnn3c2nc(N2CCCC(C)C2)c2cc(Cl)ccc23)cc1C (stereo not drawn) | 0%
CCOc1ccc(NC(=O)CCS(=O)(=O)c2ccc3nc(C)sc3c2)cc1 | 0%
CCCC(=O)Nc1ccc(-c2nc3ncccc3o2)cc1C | -44%
Cc1cn2c(=O)c(S(=O)(=O)NCc3ccccc3Cl)c(C)nc2s1 | -1%
CCOc1ccccc1NC(=O)C1=C(C)Nc2ncnn2C1c1sccc1C (stereo not drawn) | 11%
Cc1ccc(C(C)C)c(OCC(O)CN2CCN(c3ccccc3F)CC2)c1 (stereo not drawn) | 1%
CCN(CC)S(=O)(=O)c1ccc2c(c1)N(CC(=O)NCCCN1CCN(c3cc(Cl)ccc3C)CC1)C(=O)CO2 | 19%
COCCn1c(C)cc(O)c(C(c2ccccc2)N2CCN(c3ccc(F)cc3)CC2)c1=O (stereo not drawn) | 0%
O=c1[nH]c2ccc(NS(=O)(=O)c3ccc(F)cc3)cc2s1 | -1%
Cc1ccc(NC(=O)CN2C=NS(=O)(=O)c3ccccc32)cc1 | -1%
Cc1ccc(NC(=O)Nc2c[nH]c(=O)[nH]c2=O)c(Cl)c1 | 3%
CCOCCCNc1ncnc2c1cnn2-c1ccc(C)c(C)c1 | 3%
O=C(CCCn1c(=O)c2cccn2c2cccnc21)Nc1ccccc1Br | -15%
Cc1cccc(CSc2nnc3[nH]c(=O)cc(-c4ccccc4)n23)c1 | 0%
O=C(Cn1ncc2c3ccccc3n(Cc3ccccc3F)c2c1=O)N1CCCCCC1 | -1%
